# Mtb H37Rv – M. tuberculosis H37Rv growth inhibitors, H37Rv strain (AID 1626) | M. tuberculosis H37Rv growth inhibition; higher % means a stronger effect | one-dose inhibition, % at 10 µM; IC50 in µM for titrated hits | 0.95% of 220,000 active;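 active = confirmed in a dose series; inconclusive = inhibition above 80% but not taken into the dose series; inactive = below 80% or under 30% at every dose of the series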;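 also: bacteria incubated seven days before Alamar blue readout; 0% = bacteria only wells and 100% = bacteria with antibiotic wells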
# Arbovirus inh – antivirals against arbovirus infection. arbovirus infection cell-based antiviral screen. inhibition, % at 10 µM. 0.37% of 200,000 active. AID 1251;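 active = inhibition from about 30%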;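 also: bluetongue infection of BSR cells; cell survival read as ATP light after 72 h; 0% = infected wells without compound and 100% = uninfected wells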
# YopH PTP inh – YopH (Yersinia) phosphatase inhibition; AID 898; fluorescence Ex485/Em525; 0.16% of 140,000 active; inhibition, %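 (about 10 µM by stock and volumes)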;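 active = inhibition of 50% or more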;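 also: controls were vehicle for no effect and minimum signal wells for full effect; inactives centre near -20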
# RecA intein inh – inhibitors of M. tuberculosis RecA intein splicing. AID 2221. inhibition, %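 (about 9 µM by stock and volumes)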. 0.75% of 290,000 active. P9WHJ3. cell-free RecA intein splicing, fluorescence; in the data active = inhibition above about 30%; inconclusive = no clear call, values can overlap the other calls;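 also: 0% = vehicle wells and 100% = reference inhibitor control wells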
# Target sequence (P9WHJ3 whole entry, looked up): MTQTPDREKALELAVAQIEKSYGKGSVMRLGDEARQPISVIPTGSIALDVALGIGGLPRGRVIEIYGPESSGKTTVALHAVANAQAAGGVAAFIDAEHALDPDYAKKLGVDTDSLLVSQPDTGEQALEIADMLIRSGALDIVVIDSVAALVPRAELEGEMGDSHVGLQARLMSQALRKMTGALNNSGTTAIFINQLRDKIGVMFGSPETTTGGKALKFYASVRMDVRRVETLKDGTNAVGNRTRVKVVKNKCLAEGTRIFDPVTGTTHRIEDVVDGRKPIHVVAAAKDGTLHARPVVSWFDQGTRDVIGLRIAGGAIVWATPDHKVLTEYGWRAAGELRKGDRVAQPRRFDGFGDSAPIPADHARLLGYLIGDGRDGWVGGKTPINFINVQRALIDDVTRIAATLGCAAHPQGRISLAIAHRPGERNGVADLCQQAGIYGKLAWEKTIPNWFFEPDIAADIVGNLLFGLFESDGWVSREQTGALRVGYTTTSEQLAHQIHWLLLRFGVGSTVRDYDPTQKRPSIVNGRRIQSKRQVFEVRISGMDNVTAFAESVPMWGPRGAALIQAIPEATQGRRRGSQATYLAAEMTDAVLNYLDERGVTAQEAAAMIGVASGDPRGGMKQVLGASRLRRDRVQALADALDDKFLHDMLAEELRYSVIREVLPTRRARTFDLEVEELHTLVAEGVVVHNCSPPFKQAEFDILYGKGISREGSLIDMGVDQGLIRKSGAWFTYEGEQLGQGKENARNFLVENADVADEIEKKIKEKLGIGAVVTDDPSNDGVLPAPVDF
# Mtb betalactam – beta-lactam sensitization of Mtb H37Rv; AID 434955; inhibition, % at 25 µM; 0.27% of 330,000 active; M. tuberculosis H37Rv growth with meropenem, percent inhibition; hits of this screen are not shown here;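 active = about 74% or more and at least 40 points above the plate without the antibiotic, then above 30% in a dose series; inconclusive = first-round hits that could not be retested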;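 also: growth measured after seven days incubation then overnight dye step; 0% = bacteria only wells and 100% = bacteria with antibiotic; twin plates without the antibiotic show which effects depend on it; some results filed as inactive read as strong as hits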
# Arbovirus inh repeat – recorded beside Arbovirus inh, whose call it bears; inhibition, %; measured here: 10K subset replicate screen; many hits read low in the repeat;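 first of two repeat runs on a subset; 0% = infected and 100% = uninfected wells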
# * hit, by the source's call; ? = inconclusive; . = no result given. A portion of the library; rates above refer to the full screens.
# Start of the data: the first 6 entries as a preview:
SMILES,Mtb H37Rv,Arbovirus inh,YopH PTP inh,RecA intein inh,Mtb betalactam,others
Cc1ccc(Cl)cc1NC(=O)CNC(=O)N1CC(=O)Nc2ccccc21,.,.,.,-2.9,-8,
COc1ccc(S(=O)(=O)N2CC=C(C(=O)Nc3ccc(NC(C)=O)cc3)CC2)cc1,-7%,16,.,-2.7,1,
CC(=O)Nc1ccc(OCC(O)Cn2c3ccccc3c3ccccc32)c(C)c1 (stereo not given),4%,17,-26,1.3,18,
COC(=O)c1cc(S(=O)(=O)NCCCc2ccco2)c[nH]1,.,.,.,-2.5,-4,
CCOC(=O)N1CCN(C(=O)C2CCC(=O)N(Cc3ccc(Cl)cc3)C2)CC1 (stereo not given),.,.,.,-5.0,-17,
Cc1ccc(C)c(OCC(O)CN2CCc3ccccc3C2)c1C (stereo not given),.,.,.,3.0,6,

# Main list (from the top)
SMILES,Mtb H37Rv,Arbovirus inh,YopH PTP inh,RecA intein inh,Mtb betalactam,others
Cc1ccc(Cl)cc1NC(=O)CNC(=O)N1CC(=O)Nc2ccccc21,.,.,.,-2.9,-8,
COc1ccc(S(=O)(=O)N2CC=C(C(=O)Nc3ccc(NC(C)=O)cc3)CC2)cc1,-7%,16,.,-2.7,1,
CC(=O)Nc1ccc(OCC(O)Cn2c3ccccc3c3ccccc32)c(C)c1 (stereo not given),4%,17,-26,1.3,18,
COC(=O)c1cc(S(=O)(=O)NCCCc2ccco2)c[nH]1,.,.,.,-2.5,-4,
CCOC(=O)N1CCN(C(=O)C2CCC(=O)N(Cc3ccc(Cl)cc3)C2)CC1 (stereo not given),.,.,.,-5.0,-17,
Cc1ccc(C)c(OCC(O)CN2CCc3ccccc3C2)c1C (stereo not given),.,.,.,3.0,6,
COc1ccc(-c2cc(C(=O)Nc3cc(Cl)ccc3OC)no2)cc1,.,.,.,-1.9,10,
C=CCN1C(=O)/C(=c2\sc3nc(=O)c(Cc4ccccc4Cl)nn3c2=O)c2ccccc21,-5%,.,.,6.3,-3,
O=C(CCN1C(=O)C2CC=CCC2C1=O)Nc1cccc(Cl)c1 (stereo not given),.,.,.,-0.3,4,
COc1cccc(CC(=O)Nc2nc3c(s2)C(=O)CC(C)(C)C3)c1,2%,0,.,0.7,-2,
Cc1cccc(C)c1NC1=NCCCS1,-3%,1,-52,-0.6,-3,
O=C(C[n+]1cccc(CNC(=O)c2ccc(OC(F)F)cc2)c1)Nc1ccc(F)cc1,0%,2,-18,-4.2,-13,
CCC(C)(C)n1nnnc1CN1CCC(NC(=O)c2ccc(Br)cc2)CC1,-1%,1,-32,2.8,-3,
Cc1cc(NC(=O)c2ccccc2F)nc2c1c(=O)oc1ccccc12,1%,-6,.,2.9,1,
Nc1cc2ccncc2c2ccccc12,-4%,.,.,-85,12,
O=C(O)c1ccc2c(c1)C(=O)N(C(Cc1ccccc1)C(=O)O)C2=O (stereo not given),2%,5,17,2.0,4,
CCOc1ccc(CCNC(=O)c2nccnc2C(=O)O)cc1OCC,.,.,.,1.1,2,
CS(=O)(=O)N1N=C(c2ccc(Br)cc2)CC1c1cccs1 (stereo not given),8%,14,-31,-3.4,0,
O=S(=O)(NC1=NCCCCC1)c1ccccc1Cl,-1%,.,.,0.5,-1,
O=C(Oc1ccc(F)cc1)c1ccc2c(=O)n3c(nc2c1)CCC3,.,.,.,2.1,90,
Cc1ccc(N=C2NC(=O)/C(=C/c3cccn3C)S2)c(C)c1,1%,.,.,-0.3,9,
COc1ccccc1N(C)S(=O)(=O)c1ccc(C(=O)OCC(=O)NCC(F)(F)F)cc1,-7%,6,.,1.7,-8,
Cn1cc(C(=O)c2ccccc2)cc1-c1nc2ccccc2n1C,-9%,7,1,5.7,50,
C=C(C)C1CC=C(C)/C(=N\NC(=O)CCC(=O)Nc2ccc(C)c(C)c2)C1 (stereo not given),1%,.,.,-6.1,-1,
CCN(C(=O)COC(=O)Cn1cnc2c1c(=O)n(C)c(=O)n2C)C1CCS(=O)(=O)C1 (stereo not given),.,.,.,-1.7,1,
Cc1cccc(C(=O)NC2C(=O)NNC2c2ccc(Cl)cc2)c1 (stereo not given),3%,-1,.,92*,7,
CCC(=O)Nc1ccc(N2CCCCC2)c(C(=O)Nc2ccccc2C)c1,3%,-11,-12,-3.7,-9,
Oc1ccc(Br)cc1-c1cc(-c2ccc(Cl)cc2)n[nH]1,14%,74*,-24,4.5,0,
CCCCN1CCc2c1nc1ccc(Br)cc1c2N,1%,15,12,-1.1,13,
Cc1cc(C)c(C#N)c(SCCS(=O)(=O)c2ccc(C(C)(C)C)cc2)n1,-4%,5,-23,0.1,-2,
N#CCCN(CCC#N)c1nncs1,-8%,6,-23,-1.2,-19,
O=C(CCS(=O)(=O)c1ccc2c(c1)NC(=O)CS2)NCCc1ccc(Cl)cc1,.,.,.,-5.5,6,
COc1ccc(-n2nc3c(c2NC(=O)C2CC(=O)N(c4ccccc4)C2)CS(=O)(=O)C3)cc1 (stereo not given),.,.,.,-0.1,4,
Cc1ccc(-c2csc3nc4cc(C(=O)NC5CCC(O)CC5)ccc4c(=O)n23)cc1 (stereo not given),-4%,.,.,-3.1,-7,
CCc1ccc(CN2CCC(n3nccc3NC(=O)c3ccccc3C)CC2)cc1,.,.,.,-3.1,4,
O=C(CCCC(=O)c1ccccc1)NCCc1ccccc1,.,.,.,0.5,-3,
COc1ccc(NC(=O)CN2C(=O)C(C)Oc3ccccc32)cc1 (stereo not given),1%,0,-3,-0.3,0,
COc1ccc(C(=O)OC(C(=O)c2ccccc2)c2ccccc2)cc1 (stereo not given),3%,-5,-35,2.8,14,
CC(C)(CC(=O)O)CC(=O)O,.,.,.,-2.1,-1,
O=C(CSc1nc(=O)n2ccccc2n1)Nc1cccc2ccccc12,.,.,.,1.6,-9,

# Random excerpt: two entries already listed.
SMILES,Mtb H37Rv,Arbovirus inh,YopH PTP inh,RecA intein inh,Mtb betalactam,others
CCC(C)(C)n1nnnc1CN1CCC(NC(=O)c2ccc(Br)cc2)CC1,-1%,1,-32,2.8,-3,
O=C(C[n+]1cccc(CNC(=O)c2ccc(OC(F)F)cc2)c1)Nc1ccc(F)cc1,0%,2,-18,-4.2,-13,

# More results
SMILES,Mtb H37Rv,Arbovirus inh,YopH PTP inh,RecA intein inh,Mtb betalactam,others
Cc1ccc(S(=O)(=O)/N=S(\C)C(C)C)cc1 (stereo not given),-5%,5,-19,-1.6,-7,
Cc1ccc(S(=O)(=O)n2cnc3cc([N+](=O)[O-])ccc32)cc1C,-6%,-3,-35,0.1,0,
CCN(CC)CCN(C(=O)C1=COCCO1)c1nc2c(OC)ccc(OC)c2s1,.,.,.,-0.4,0,
O=C(CN1C(=O)C2CC=CCC2C1=O)Nc1ccc(S(=O)(=O)NC2=NCCCCC2)cc1 (stereo not given),-5%,-7,-22,1.2,-8,
O=C(Cc1ccccc1Cl)Nc1ccc(S(=O)(=O)N2CCOCC2)cc1,.,.,.,-2.2,-17,
CC[n+]1ccccc1/C=C/Nc1ccccc1,-7%,-10,.,.,-1,
CCOc1ccc(N(CC(=O)NC2CCCCCC2)S(=O)(=O)c2c(C)[nH]c(=O)[nH]c2=O)cc1,0%,1,-34,1.9,0,
CCC(C)(C)NC(=O)C(c1ccc(OC)cc1)N(C(=O)CCC(=O)Nc1cc(C)on1)c1ccccc1OC (stereo not given),.,.,.,-2.4,-3,
Cc1cccc(NC(=O)CSCc2c(C)noc2C)c1C,-3%,7,-21,-0.4,-12,
O=C(Nc1ccc(F)cc1)N(Cc1ccco1)Cc1cc2cc3c(cc2[nH]c1=O)OCO3,-8%,0,-21,-0.3,-5,
COc1cc(CN2CCNC(=O)C2CC(=O)NC2CCCC2)cc(OC)c1 (stereo not given),.,.,.,-1.2,-8,
CCn1nc(C)c(Br)c1Nc1ccc(Br)cc1,8%,-2,.,.,-1,
COC(=O)c1cnc(N2CCCN(S(=O)(=O)c3ccccc3)CC2)nc1C(F)(F)F,-4%,.,.,3.2,8,
CCOC(=O)NC(=O)COC(=O)c1ccc(O)cc1,-6%,1,.,-2.9,-1,
Cc1ccc(S(=O)(=O)/N=C(\N)Nc2nc(C)c3ccc(C)cc3n2)cc1,0%,13,-16,-0.3,38,
CN(c1ccc(C(=O)O)cc1)S(=O)(=O)c1ccccc1,1%,1,-45,2.9,3,Arbovirus inh repeat=0
CCOC(=O)C1CCN(S(=O)(=O)c2cccc(-c3cn4ccccc4n3)c2)CC1,1%,15,-24,1.4,-5,
O=c1[nH]nc(CNc2ccc(O)cc2)c2ccccc12,4%,-1,27,20,-3,
COc1ccc(C(C)=O)cc1COc1cccc2cccnc12,.,.,.,-1.1,3,
CCCCCCn1c(=O)[nH]c2nc3cc(N)c(C)cc3nc2c1=O,10%,-22,-25,.,.,
COc1ccc(-n2cnc3cc([N+](=O)[O-])ccc32)cc1,6%,-2,.,.,.,
S=c1[nH]nc(CN2CCCCC2)n1-c1ccc(Cl)cc1,0%,13,.,2.6,-1,
C=CCNC(=O)C12CC3CC(C1)CC(C(=O)NCC=C)(C3)C2,-2%,0,-23,.,9,
CCc1ccc(C2CC(c3cccc(OC)c3)n3nc(N)nc3N2)cc1 (stereo not given),-11%,1,.,-0.2,?,Arbovirus inh repeat=2
O=C(Nc1ccc(S(=O)(=O)N2CCCC2)cc1Cl)C1=COCCO1,-8%,-2,-26,0.0,5,
COc1ccc(N(CC(=O)N2CCC(C)CC2)S(=O)(=O)c2c(C)nn(C)c2C)cc1,-2%,0,-46,-0.9,-5,
Cc1ccc(-c2cc(C(=O)N/N=C/c3c[nH]c4ccccc34)[nH]n2)cc1,10%,-15,-28,-5.3,.,
O=C(NC(=S)Nc1ccc(S(=O)(=O)N2CCCCCC2)cc1)c1cccs1,-5%,-9,-41,1.2,5,
CC(NC(=O)Cn1c(NCCO)nc2ccccc21)c1ccccc1 (stereo not given),-9%,6,-14,-0.3,-1,
Cc1cccc(C)c1OCc1nnc(SCC(=O)Nc2nccs2)n1-c1ccccc1,-17%,-12,13,-3.0,8,
COc1ccc(-c2nn(-c3ccccc3)cc2/C=N/NS(=O)(=O)c2ccccc2)cc1,.,1,-30,6.5,13,
CN(C)c1cc[n+](CC(=O)c2ccc(OC(F)F)cc2)cc1,6%,.,.,-1.7,-5,
COc1ccnc(N=CNOCc2cccc(Cl)c2Cl)c1C#N,2%,3,-12,3.1,-9,
CC(C)(CNC(=O)c1ccc(NS(=O)(=O)c2ccc(F)cc2)cc1)N1CCOCC1,.,.,.,-7.5,-3,
Cc1nc(C(=O)N2CCCC(N3CCN(c4ccccc4C)CC3)C2)cs1 (stereo not given),.,.,.,-0.7,-1,
COc1cc([N+](=O)[O-])cc2cc(C(=O)NC(C)(C)C)c(=O)oc12,32%,2,.,0.4,21,
CNC(=O)CSc1nc2c(c(=O)n(C)c(=O)n2C)n1Cc1ccc(C)cc1,7%,-8,-33,-2.1,3,
CC(=O)N1CCN(C(C)=O)C1c1ccccc1,3%,7,-32,-0.9,9,
O=C(NCC1CCCO1)C1CCCN(Cc2cnn(-c3ccccc3)c2-n2cccc2)C1 (stereo not given),-10%,-2,-2,0.0,-5,
Cc1cccc(C)c1-n1c(SCC(=O)Nc2ccc(C(=O)O)cc2)nnc1-c1cccc(S(=O)(=O)N(C)C)c1,-2%,13,.,1.4,-5,
Cc1cc(C)c(C#N)c(SCC(=O)c2cc(C)n(CCc3ccccc3)c2C)n1,1%,11,-14,-13,-3,
COc1ccc(OC)c(N(CC(=O)NN=C2CCN(C)CC2)S(=O)(=O)c2ccccc2)c1,.,.,.,0.5,-1,
CCCCOC(=O)Nc1nnc(CCc2ccccc2)s1,5%,18,-33,-1.0,-2,
CCOC(=O)Cc1nnc(NC(=O)c2cccc(OCC)c2)s1,-14%,2,-44,-2.8,-1,
Cc1nnc(NC(=O)CSc2nnc(CNC(=O)c3ccc(S(=O)(=O)N(C)C)cc3)o2)s1,.,.,.,-6.7,1,
CC(COc1ccccc1Cc1ccccc1)N1CCCCC1 (stereo not given),1%,.,.,0.5,-6,
O=C(C1CCCCC1)N1CCN(S(=O)(=O)c2cccc([N+](=O)[O-])c2)CC1,.,.,.,-2.3,3,
O=C(NCc1ccco1)C1CCN(C(=O)c2cc3sccc3n2Cc2ccc(Cl)cc2)CC1,10%,-13,-6,18,7,
COc1cccc(C(=O)C2CCCN(Cc3cn(CC(N)=O)c4ccccc34)C2)c1 (stereo not given),4%,-9,.,-0.7,-11,
C=CCC1NCCc2c(Br)cccc21 (stereo not given),16%,1,.,8.0,68,
COc1ccc(NC(=O)CSc2nnc(-c3ccccc3)n2Cc2ccco2)c(OC)c1,-9%,-3,-43,8.3,-16,
C=CCOc1c(Br)cc(CNn2cn[nH]c2=S)cc1OC,0%,1,.,-1.6,-4,
COc1ccc(C(=O)O)cc1S(=O)(=O)N1CCCc2ccccc21,.,.,.,2.9,-2,

# Screening data as filed in PubChem BioAssay.
